# Screens as filed in PubChem.
# HIV Env fusion = inhibitors of HIV-1 Env-driven cell-cell fusion, primary screen, HeLa-JRFL effector, CEM21 target cells, luciferase; inhibition, % at 12.3 µM; 360,000 tested, 1.1% active;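 active means mean replicate inhibition score of at least 50 and every replicate individually at or above 50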;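 further: 0% = plate neutral controls and 100% = maraviroc near 300 nM; one replicate is shown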
# Yeast UUG start = modulators of yeast start codon fidelity, primary screen, whole organism, S. cerevisiae, single point, plate reader; S. cerevisiae UUG-firefly luciferase reporter, luminescence/redox ratio; activity score, % at 18.7 µM; 350,000 tested, 0.13% active;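 active means replicate mean at a twofold rise or more, about +100% in these data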;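 further: firefly luciferase made from a UUG start codon reports start codon fidelity; reporter light over untreated wells divided by growth signal over untreated wells; some hits fall short of that in this replicate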
# * = called active by the depositor; [ ] = remark or other dose. An excerpt. The share of hits here may be higher or lower than overall.
(1) CCCc1cn(CC[C@@H]2CC[C@@H](NC(=O)Nc3ccc4c(c3)OCO4)[C@@H](CO)O2)nn1
(2) COc1cccc(CNC(=O)C[C@H]2C=C[C@H](NC(C)=O)[C@@H](CO)O2)c1
(3) Cc1noc(C)c1NC(=O)N(C)C[C@@H]1Oc2ccc(NC(=O)CCN3CCOCC3)cc2C(=O)N([C@@H](C)CO)C[C@H]1C
(4) COCc1cn(CC[C@@H]2CC[C@H](NC(=O)c3ccc(F)cc3)[C@H](CO)O2)nn1
(5) C[C@H]1CN([C@@H](C)CO)C(=O)c2cc(NC(=O)C3CC3)ccc2O[C@@H]1CN(C)C(=O)NC1CCCCC1
(6) COc1ccc(S(=O)(=O)Nc2ccc3c(c2)C(=O)N([C@H](C)CO)C[C@@H](C)[C@H](CN(C)S(=O)(=O)c2cccs2)OCCCC[C@H](C)O3)cc1
(7) O=C(C[C@@H]1CC[C@@H](NC(=O)C2CCOCC2)[C@@H](CO)O1)Nc1ccc(-c2ccccc2)cc1
(8) CCC(=O)N(C)C[C@@H]1Oc2cc(C#Cc3cccnc3)ccc2S(=O)(=O)N([C@@H](C)CO)C[C@H]1C
(9) Cc1noc(C)c1S(=O)(=O)Nc1ccc2c(c1)CC(=O)N([C@H](C)CO)C[C@H](C)[C@H](CN(C)CC1CCCCC1)O2
(10) CC(C)CC#Cc1ccc2c(c1)O[C@H](CN(C)C(=O)NC(C)C)[C@@H](C)CN([C@H](C)CO)S2(=O)=O

assay / entry | 1 | 2 | 3 | 4 | 5 | 6 | 7 | 8 | 9 | 10
HIV Env fusion | 9[16.7 µM] | -7[16.7 µM] | -8[16.7 µM] | -7[16.7 µM] | -6[16.7 µM] | -14[16.7 µM] | -333[16.7 µM] | 6[16.7 µM] | 3[16.7 µM] | -5[16.7 µM]
Yeast UUG start | -8 | -15 | -13 | -17 | -15 | 18 | 3 | 22 | 15 | 2

(11) C[C@@H]1CN([C@H](C)CO)C(=O)c2cc(NC(=O)Nc3ccc4c(c3)OCO4)ccc2O[C@@H](C)CCCCO[C@H]1CN(C)S(=O)(=O)c1ccc(F)cc1
(12) C[C@@H]1CN([C@@H](C)CO)C(=O)c2cc(NS(=O)(=O)c3ccc(Cl)cc3)ccc2O[C@@H](C)CCCCO[C@@H]1CN(C)S(=O)(=O)c1cn(C)cn1
(13) O=C(C[C@@H]1C=C[C@@H](NC(=O)Cc2cccnc2)[C@H](CO)O1)NCc1ccc2c(c1)OCO2
(14) O=C(C[C@H]1CC[C@@H](NC(=O)Nc2cccc(F)c2)[C@@H](CO)O1)NCC1CC1
(15) C[C@@H]1CCCCO[C@@H](CN(C)Cc2ccc(C(=O)O)cc2)[C@H](C)CN([C@H](C)CO)C(=O)c2cc(NC(=O)Nc3ccc4c(c3)OCO4)ccc2O1
(16) C[C@H]1CN([C@@H](C)CO)C(=O)c2cccc(NC(=O)Nc3ccc(C(F)(F)F)cc3)c2O[C@@H]1CN(C)Cc1ccc(Oc2ccccc2)cc1
(17) CO[C@H]1CN(C)C(=O)c2ccc(NC(=O)Nc3ccccc3F)cc2OC[C@H](C)NC[C@H]1C
(18) CCCN(C)C[C@@H]1Oc2cc(C#Cc3ccccc3F)ccc2S(=O)(=O)N([C@H](C)CO)C[C@@H]1C
(19) CCCC(=O)Nc1ccc2c(c1)C(=O)N(C)C[C@H](OC)[C@H](C)CN(Cc1cncnc1)[C@@H](C)CO2
(20) C[C@H]1CN([C@@H](C)CO)C(=O)c2cc(C#Cc3ccccn3)cnc2O[C@@H]1CN(C)CC1CCOCC1

assay / entry | 11 | 12 | 13 | 14 | 15 | 16 | 17 | 18 | 19 | 20
HIV Env fusion | -6[16.7 µM] | 5[16.7 µM] | 8[16.7 µM] | -1[16.7 µM] | 13[16.7 µM] | 27[16.7 µM] | 8[16.7 µM] | 20[16.7 µM] | 36[16.7 µM] | -24[16.7 µM]
Yeast UUG start | -2 | 30 | 7 | -15 | 4 | -5 | 3 | 15 | 8 | -3

# Some values from the list.
# O=C(C[C@@H]1C=C[C@@H](NC(=O)Cc2cccnc2)[C@H](CO)O1)NCc1ccc2c(c1)OCO2 @ HIV Env fusion = 8[16.7 µM]
# C[C@@H]1CN([C@@H](C)CO)C(=O)c2cc(NS(=O)(=O)c3ccc(Cl)cc3)ccc2O[C@@H](C)CCCCO[C@@H]1CN(C)S(=O)(=O)c1cn(C)cn1 @ Yeast UUG start = 30
# C[C@H]1CN([C@@H](C)CO)C(=O)c2cc(C#Cc3ccccn3)cnc2O[C@@H]1CN(C)CC1CCOCC1 @ Yeast UUG start = -3

# Continuation:
(21) Cc1ccc(S(=O)(=O)N(C)C[C@@H]2OCCCC[C@@H](C)Oc3ccc(NS(C)(=O)=O)cc3C(=O)N([C@H](C)CO)C[C@H]2C)cc1
(22) CC(C)NC(=O)Nc1ccc2c(c1)C(=O)N([C@@H](C)CO)C[C@@H](C)[C@H](CN(C)S(=O)(=O)c1cn(C)cn1)OCCCC[C@H](C)O2
(23) C[C@H]1CCCCO[C@H](CN(C)S(=O)(=O)c2ccc(Cl)cc2)[C@@H](C)CN([C@@H](C)CO)C(=O)c2cc(NC(=O)Nc3ccc4c(c3)OCO4)ccc2O1
(24) C[C@@H]1CN([C@H](C)CO)C(=O)c2cc(NC(=O)Cc3ccccc3)ccc2O[C@@H](C)CCCCO[C@@H]1CN(C)Cc1ccc2c(c1)OCO2
(25) CC(C)CC#Cc1cnc2c(c1)C(=O)N([C@H](C)CO)C[C@H](C)[C@@H](CN(C)C(=O)c1cccnc1)O2
(26) C[C@H]1CN([C@@H](C)CO)C(=O)Cc2cc(NS(C)(=O)=O)ccc2O[C@@H]1CN(C)C(=O)Nc1ccc(C(F)(F)F)cc1
(27) C[C@H]1CN([C@@H](C)CO)C(=O)c2cccc(NC(=O)C3CC3)c2O[C@@H]1CN(C)S(=O)(=O)c1cccs1
(28) COc1cccc(-c2cnc3c(c2)C(=O)N([C@@H](C)CO)C[C@H](C)[C@H](CN(C)Cc2ccccc2)O3)c1
(29) C[C@H]1CN([C@@H](C)CO)C(=O)c2cc(NC(=O)Cc3ccccc3)ccc2O[C@H]1CN(C)S(=O)(=O)c1ccccc1
(30) CCC(=O)Nc1ccc2c(c1)C(=O)N(C)C[C@@H](OC)[C@@H](C)CN(Cc1ccccn1)[C@H](C)CO2

assay / entry | 21 | 22 | 23 | 24 | 25 | 26 | 27 | 28 | 29 | 30
HIV Env fusion | -9[16.7 µM] | -4[16.7 µM] | -19[16.7 µM] | -26[16.7 µM] | 9[16.7 µM] | 19[16.7 µM] | 21[16.7 µM] | 8[16.7 µM] | -13[16.7 µM] | 10[16.7 µM]
Yeast UUG start | 18 | 5 | -10 | 33 | 8 | -11 | 7 | -1 | 9 | -18

(31) C[C@@H]1CN([C@H](C)CO)C(=O)c2cc(Br)cnc2O[C@@H]1CN(C)CC1CC1
(32) C[C@H](CO)N1C[C@H](C)[C@@H](CN(C)C(=O)Nc2ccc(F)cc2)OCCCC[C@H](C)Oc2ccc(NS(=O)(=O)c3cccs3)cc2C1=O
(33) C[C@H](CO)N1C[C@H](C)[C@@H](CN(C)C(=O)Nc2cccc3ccccc23)Oc2c(NC(=O)c3ccc(-c4nccs4)cc3)cccc2C1=O
(34) O=C(C[C@H]1C[C@@H]2c3cc(NC(=O)Nc4ccc(F)cc4)ccc3O[C@@H]2[C@@H](CO)O1)NC1CCCCC1
(35) CC(C)CC#Cc1cnc2c(c1)C(=O)N([C@@H](C)CO)C[C@H](C)[C@@H](CN(C)Cc1ccccn1)O2
(36) C[C@H]1CN([C@@H](C)CO)S(=O)(=O)c2ccc(C#CC3(O)CCCC3)cc2O[C@H]1CN(C)C(=O)c1ccccc1
(37) CN(C)CC(=O)N1[C@H](CO)[C@H](c2ccc(C#CC3CC3)cc2)[C@@H]1C#N
(38) C[C@@H]1CCCCO[C@H](CN(C)Cc2ccc3c(c2)OCO3)[C@@H](C)CN([C@H](C)CO)C(=O)c2cc(NS(=O)(=O)c3ccc(F)cc3)ccc2O1
(39) COc1ccc(S(=O)(=O)N[C@@H]2CC[C@@H](CCNC(=O)CN3CCOCC3)O[C@H]2CO)cc1
(40) C[C@@H]1CCCCO[C@H](CN(C)C(=O)Nc2ccc(C(F)(F)F)cc2)[C@@H](C)CN([C@H](C)CO)C(=O)c2cc(NC(=O)Nc3ccccc3)ccc2O1

assay / entry | 31 | 32 | 33 | 34 | 35 | 36 | 37 | 38 | 39 | 40
HIV Env fusion | 5[16.7 µM] | -50[16.7 µM] | 2[16.7 µM] | 21[16.7 µM] | 11[16.7 µM] | 0[16.7 µM] | 1[16.7 µM] | -32[16.7 µM] | 10[16.7 µM] | -26[16.7 µM]
Yeast UUG start | -6 | -7 | 22 | 4 | 55 | 10 | -5 | 41 | -4 | -7

(41) C[C@H]1CN([C@@H](C)CO)S(=O)(=O)c2ccc(C#CCC3CCCC3)cc2O[C@@H]1CN(C)C(=O)CC1CC1
(42) COc1ccc(NC(=O)Nc2ccc3c(c2)C(=O)N([C@@H](C)CO)C[C@@H](C)[C@H](CN(C)Cc2ccccc2)OCCCC[C@H](C)O3)cc1
(43) C[C@@H]1CN([C@@H](C)CO)C(=O)c2cccc(NS(=O)(=O)c3ccc(F)cc3)c2O[C@H]1CN(C)Cc1ccc(C(F)(F)F)cc1
(44) Cc1noc(C)c1S(=O)(=O)N(C)C[C@@H]1Oc2ccc(NC(=O)Nc3ccc(C(F)(F)F)cc3)cc2CC(=O)N([C@@H](C)CO)C[C@H]1C
(45) Cc1noc(C)c1NC(=O)N(C)C[C@@H]1OCCCC[C@H](C)Oc2ccc(NC(=O)NC(C)C)cc2C(=O)N([C@H](C)CO)C[C@@H]1C
(46) C[C@H]1CN([C@@H](C)CO)C(=O)c2cccc(NC(=O)c3ccc(-c4nccs4)cc3)c2O[C@H]1CN(C)S(=O)(=O)c1cccs1
(47) C/C=C/c1ccc2c(c1)O[C@H](CN(C)C(=O)Nc1ccc(F)cc1)[C@H](C)CN([C@H](C)CO)S2(=O)=O
(48) CO[C@H]1CN(C)C(=O)c2cc(NS(C)(=O)=O)ccc2OC[C@H](C)N(C(=O)CN(C)C)C[C@H]1C
(49) Cc1noc(C)c1NC(=O)N(C)C[C@@H]1Oc2ccc(NC(=O)Cn3cnnn3)cc2CC(=O)N([C@@H](C)CO)C[C@@H]1C
(50) CC(C)NC(=O)N(C)C[C@@H]1Oc2c(NC(=O)Nc3ccc4c(c3)OCO4)cccc2C(=O)N([C@@H](C)CO)C[C@H]1C

assay / entry | 41 | 42 | 43 | 44 | 45 | 46 | 47 | 48 | 49 | 50
HIV Env fusion | 20[16.7 µM] | -13[16.7 µM] | -13[16.7 µM] | 3[16.7 µM] | 15[16.7 µM] | -12[16.7 µM] | 24[16.7 µM] | -5[16.7 µM] | -1[16.7 µM] | 1[16.7 µM]
Yeast UUG start | 13 | 15 | -2 | -16 | 4 | 3 | -3 | -2 | -7 | 10

(51) C[C@H](CO)N1C[C@H](C)[C@@H](CN(C)S(=O)(=O)c2cn(C)cn2)OCCCC[C@H](C)Oc2ccc(NS(C)(=O)=O)cc2C1=O
(52) CCCC(=O)Nc1ccc2c(c1)OC[C@H](C)N(C(=O)CC)C[C@@H](C)[C@@H](OC)CN(C)C2=O
(53) C[C@@H]1CCCCO[C@@H](CN(C)C(=O)Cc2ccccc2)[C@H](C)CN([C@@H](C)CO)C(=O)c2cc(NC(=O)C3CCCCC3)ccc2O1
(54) C[C@H]1CN([C@@H](C)CO)C(=O)c2cc(C#Cc3ccc(F)cc3)cnc2O[C@@H]1CN(C)S(C)(=O)=O
(55) Cc1noc(C)c1NC(=O)NCC[C@@H]1CC[C@H](NC(=O)Nc2cccc(Cl)c2)[C@@H](CO)O1
(56) C[C@@H]1CCCCO[C@H](CN(C)S(=O)(=O)c2ccc(Cl)cc2)[C@H](C)CN([C@@H](C)CO)C(=O)c2cc(NS(=O)(=O)c3ccc(Cl)cc3)ccc2O1
(57) O=C(NCC[C@H]1CC[C@H](NC(=O)C2CCCCC2)[C@@H](CO)O1)c1ccc(F)cc1
(58) O=C(Cc1ccccc1)N[C@H]1C=C[C@H](CC(=O)N2CCOCC2)O[C@@H]1CO
(59) C[C@@H]1CN([C@@H](C)CO)C(=O)Cc2cc(NC(=O)c3ccncc3)ccc2O[C@@H]1CN(C)S(C)(=O)=O
(60) CCCC(=O)Nc1ccc2c(c1)C(=O)N(C)[C@H]1CC[C@@H](CC(=O)O)O[C@@H]1CO2

assay / entry | 51 | 52 | 53 | 54 | 55 | 56 | 57 | 58 | 59 | 60
HIV Env fusion | -10[16.7 µM] | -5[16.7 µM] | 7[16.7 µM] | 3[16.7 µM] | -3[16.7 µM] | -86[16.7 µM] | 1[16.7 µM] | -2[16.7 µM] | 7[16.7 µM] | 10[16.7 µM]
Yeast UUG start | 15 | 2 | 16 | -9 | 15 | -15 | 9 | -6 | 4 | 13

(61) C[C@H](CO)N1C[C@H](C)[C@H](CN(C)S(=O)(=O)c2cccs2)Oc2ccc(NS(=O)(=O)c3ccc(F)cc3)cc2C1=O
(62) C[C@H](CO)N1C[C@H](C)[C@@H](CN(C)CC2CCCCC2)Oc2ccc(NC(=O)Cc3cn(C)c4ccccc34)cc2CC1=O
(63) C[C@@H]1CN([C@H](C)CO)C(=O)c2cccc(NC(=O)c3ccncc3)c2O[C@@H]1CN(C)Cc1ccccc1
(64) COc1cccc(C#Cc2ccc3c(c2)O[C@H](CN(C)C(=O)CN2CCOCC2)[C@H](C)CN([C@H](C)CO)S3(=O)=O)c1
(65) C[C@@H]1CN([C@@H](C)CO)C(=O)c2cc(NC(=O)Nc3cccc4ccccc34)ccc2O[C@H]1CN(C)S(=O)(=O)c1ccccc1

assay / entry | 61 | 62 | 63 | 64 | 65
HIV Env fusion | 20[16.7 µM] | 18[16.7 µM] | 6[16.7 µM] | 16[16.7 µM] | 3[16.7 µM]
Yeast UUG start | 5 | 16 | -11 | 28 | -1
